LANA-H2A inh = blocks KSHV LANA binding to histone H2A/H2B. Q9QR71. cell-free LANA-H2A/H2B peptide, fluorescence polarization. inhibition, % (no concentration beside the values). actives 0.6% (n = 320,000); in the data active = inhibition mostly above about 10%, no sharp cut-off; inactive = mostly below about 6.7%;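 also: stock transfer was 7.5 nL into about 10 µL; 0% = median of vehicle wells and 100% = median of positive control wells; one replicate is shown; the record names a cut of 25% in any replicate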
Target sequence (Q9QR71 whole entry, looked up): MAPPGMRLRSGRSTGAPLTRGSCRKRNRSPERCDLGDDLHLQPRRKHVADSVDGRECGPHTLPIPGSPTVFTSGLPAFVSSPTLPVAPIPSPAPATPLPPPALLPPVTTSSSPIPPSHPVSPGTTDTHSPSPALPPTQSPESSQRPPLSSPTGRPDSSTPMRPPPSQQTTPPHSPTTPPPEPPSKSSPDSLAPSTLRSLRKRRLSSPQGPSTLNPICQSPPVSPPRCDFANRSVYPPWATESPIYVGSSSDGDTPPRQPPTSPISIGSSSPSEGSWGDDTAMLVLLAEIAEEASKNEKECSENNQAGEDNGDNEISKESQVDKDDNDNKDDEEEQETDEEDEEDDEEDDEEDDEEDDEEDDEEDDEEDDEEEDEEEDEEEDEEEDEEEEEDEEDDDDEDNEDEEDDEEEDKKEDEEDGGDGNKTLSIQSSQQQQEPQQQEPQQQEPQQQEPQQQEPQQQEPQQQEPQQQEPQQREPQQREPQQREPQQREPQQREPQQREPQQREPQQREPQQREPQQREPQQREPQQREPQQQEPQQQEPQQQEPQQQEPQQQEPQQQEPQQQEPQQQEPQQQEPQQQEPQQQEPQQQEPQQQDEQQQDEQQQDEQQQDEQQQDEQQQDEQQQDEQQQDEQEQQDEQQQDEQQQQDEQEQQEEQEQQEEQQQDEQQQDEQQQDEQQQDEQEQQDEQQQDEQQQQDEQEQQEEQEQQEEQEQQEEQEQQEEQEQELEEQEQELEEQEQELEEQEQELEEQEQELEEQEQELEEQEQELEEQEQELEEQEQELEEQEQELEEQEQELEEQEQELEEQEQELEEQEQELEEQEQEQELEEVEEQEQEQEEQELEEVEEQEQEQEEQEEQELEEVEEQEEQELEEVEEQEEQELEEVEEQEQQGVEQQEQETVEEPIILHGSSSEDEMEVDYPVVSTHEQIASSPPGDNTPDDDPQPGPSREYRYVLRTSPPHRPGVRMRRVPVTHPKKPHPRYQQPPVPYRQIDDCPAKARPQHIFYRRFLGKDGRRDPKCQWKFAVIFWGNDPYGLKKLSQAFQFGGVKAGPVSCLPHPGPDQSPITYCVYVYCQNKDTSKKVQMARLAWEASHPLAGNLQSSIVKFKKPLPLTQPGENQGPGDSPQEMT
Beta cell apopt = blocks beta cell apoptosis. INS-1E cytokine-induced death, ATP luminescence, 48 h; percent of positive-control rescue, neutral wells zero. protection from apoptosis, % (no concentration beside the values). actives 0.8% (n = 300,000). AID 435005;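 active = all replicates at 75% or more, or half of them and the mean; inconclusive = half reach 75% but not the mean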;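 also: 0% = cytokine-treated negative control wells and 100% = positive control rescue; higher means more ATP so stronger rescue from cytokine killing; wells of about 40 µL received 100 nL stock; the first replicate is given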
Calb FLC = affects C. albicans growth with fluconazole. actives 0.57% (n = 300,000). C. albicans CaCi-2 (fluconazole-resistant clinical isolate) + fluconazole, Alamar Blue growth, 48 h. growth inhibition, % (concentration not given with the values);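 active = most replicates above 75%; inconclusive = exactly half above 75%; inactive = most below 75%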;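 also: all wells also contain fluconazole at 8 µg/ml as a sub-toxic cotreatment; 0% = median of DMSO wells and 100% = median of geldanamycin control wells; wells of about 8 µL received 7.5 nL stock; the first replicate is given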
UCH37 DUB inh = inhibitors of human deubiquitinating enzyme UCH37. Q9Y5K5. purified proteasome/UCH37, Ub-AMC cleavage fluorescence. inhibition, % (test concentration not listed). actives 0.33% (n = 330,000). AID 588478;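 active = mean of two replicates above 20%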;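 also: 0% = compound-free wells with enzyme and 100% = wells lacking proteasome; stock transfer was 100 nL into about 20 µL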
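Material: Human UCH37 enzyme supplied as purified proteasome complex | Schedule: 30 min compound-proteasome preincubation then 25 min substrate reaction, room temperature | Detection: AMC fluorescence from Ub-AMC cleavage, excitation 355 nm, emission 460 nm | Benchmarks: Wells without proteasome as full block, compound-free enzyme plus substrate as uninhibited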
Beta2AR agonist = agonists of human beta-2 adrenergic receptor inducing internalization | P07550 | Am2.2-beta2AR cells, FAP receptor internalization, flow cytometry; reference of the scale not given here | response, % (test concentration not listed) | actives 0.43% (n = 340,000) | AID 504454;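 active = response above a set limit, near 3 SD of response in nonfluorescent compounds, cut at about 42% in these data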;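 also: stock transfer was 100 nL into about 11 µL; a reference agonist was the positive control; negative values mostly stem from fluorescent compounds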
Bfl-1 A1 inh = inhibitors of the anti-apoptotic protein A1, read as caspase activation; MEF A1-2A-BIM cells, Caspase-Glo 3/7 luminescence, 3 h; percent of clofoctol response, vehicle zero; caspase activation, % (concentration not given with the values); actives 0.066% (n = 330,000);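 active = over half of replicate activation scores above 10%, or exactly half above 10 with the replicate mean above 10; inconclusive = replicate mean below 10 yet half the replicates above 10; inactive = over half of replicates below 10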;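 also: wells of about 30 µL received 50 nL stock; many hits fall short of the cut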
RanGTP-Impb inh = disruptors of Ran-importin-beta complex formation – biochemical, FRET, CFP-Ran, YFP-importin-beta, homogeneous, primary screen; cell-free CFP-Ran/YFP-importin-beta FRET ratio; actives 1.1% (n = 300,000); inhibition, % (test concentration not listed);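 active = most replicates above 15%; inconclusive = exactly half above 15%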;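 also: 0% = DMSO wells and 100% = Ran loaded with GDP instead of GTP; wells of about 40 µL received 100 nL stock; the first replicate is given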
T cruzi inh = blocks replication of Trypanosoma cruzi; T. cruzi beta-gal in NIH3T3, luminescence, 90 h; inhibition, % (test concentration not listed); actives 1.4% (n = 300,000); AID 1885;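 active = mean inhibition across valid replicates above about 55%, limit read from the data; inconclusive = mean below that limit but half or more replicates reach it; inactive = mean below it, under half of replicates reach it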;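 also: signal also drops with host cell toxicity which is not excluded here; 0% = plate median of DMSO wells and 100% = zero luminescence signal; higher percent means less beta-gal luminescence so fewer parasites; stock transfer was 50 nL into about 50 µL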
The depositor's hits bear a star; i = inactive; ? = inconclusive; . = no result given.

SMILES	LANA-H2A inh	Beta cell apopt	Calb FLC	UCH37 DUB inh	Beta2AR agonist	Bfl-1 A1 inh	RanGTP-Impb inh	T cruzi inh
O=C(CCc1nnc(-c2ccsc2)o1)N1CCc2c(Cl)cccc2C1	-0.9	1.5	-0.9	-0.5	1.5	1.0	2.2	3.1
Cc1ccc(C)c(Nc2c([N+](=O)[O-])c(=O)oc3ccccc23)c1	1.1	9.1	-11.3	8.1	-2.3	-0.9	-2.7	-1.9
CC(=O)c1ccc(NC(=O)c2ccc3c(c2)C(=O)N(c2ccccn2)C3=O)cc1	-2.3	.	-14.2	5.4	3.2	0.8	4.6	-7.1
O=C1C=CC(=O)N1N(c1ccccc1)c1ccccc1	6.0	-8.0	-13.1	7.3	0.1	0.1	1.2	-15.6
Cc1oc2cc3c(C(=O)N4CCCCC4)c(C)oc3cc2c1C(=O)N1CCCCC1	-1.3	-1.0	-4.3	0.8	-13.8	-0.7	-4.0	1.5
CS(=O)(=O)c1ccc(-c2nnc(NC(=O)c3cccc(N4C(=O)CCC4=O)c3)o2)cc1	-4.7	.	-0.5	7.2	0.2	0.1	-0.3	-4.0
O=C(NCCCNC(=O)c1cc(Cl)ccc1Cl)c1ccccn1	7.3	.	-0.2	6.7	-2.2	0.2	0.0	10.1
O=C(Nc1ccccc1)NC1CCCCNC1=O (stereo unspecified)	3.8	-10.1	2.1	3.7	-4.2	0.4	-2.9	-15.8
O=[N+]([O-])c1ccc(Sc2nnnn2-c2ccccc2)nc1	.	.	-1.3	5.4	.	.	-3.2	36.3
COC(=O)c1cc(S(=O)(=O)N2CCN(c3ccccc3)CC2)c[nH]1	-2.3	-8.2	-1.2	4.9	2.0	-0.1	29.1*	-9.0
CSCC[C@H](NC(=O)C1CCN(C(=O)[C@H](Cc2ccccc2)NS(=O)(=O)c2ccc(C)cc2)CC1)C(=O)O	3.6	-5.4	-8.4	-0.5	-4.0	0.1	-2.4	-2.5
Cc1cc(C)cc(N(CCC(=O)Nc2nnc(C)s2)S(=O)(=O)c2ccc(Cl)cc2)c1	2.8	2.2	-6.5	0.7	-6.8	1.9	-1.8	-0.5
O=C(Nc1ccc(N2CCN(C(=O)c3ccccc3F)CC2)cc1)c1cncc(Br)c1	-2.5	-4.2	1.3	3.3	15.3	0.0	10.4	33.1
NC(=O)c1ccccc1Br	0.4	-4.6	-1.7	0.2	-10.3	1.8	6.1	-8.2
O=S(=O)(c1ccccc1)N1CCN(c2nnnn2-c2ccccc2)CC1	-18.9	4.5	-6.3	0.8	0.2	-0.4	3.0	-12.2
CCOC(=O)Nc1cccc(OCC(=O)Nc2ccc(OC)cc2OC)c1	-0.8	3.0	5.7	1.2	.	0.5	4.8	10.2
Nc1ccccc1SSc1ccccc1N	3.1	2.1	0.9	7.1	1.1	0.1	-3.2	33.6
COc1ccccc1NC(=O)C1CCCN(C(=O)Nc2ccc(F)cc2)C1 (stereo unspecified)	0.1	-3.5	1.5	-2.3	-3.5	-0.2	-3.9	3.6
CCCCn1c(C(C)NC(=O)CC)nc2ccccc21 (stereo unspecified)	-0.6	-1.0	3.8	6.9	-7.1	0.5	-1.5	-4.0
O=C1N[C@H](Cc2ccccc2)C(=O)N[C@H]1Cc1cn(S(=O)(=O)c2ccccc2)c2ccccc12	-2.9	1.9	5.6	-1.1	.	-0.1	-1.5	4.8
CC(C)OC(=O)c1cccnc1N1CCN(c2ccc(F)cc2)CC1	6.1	-4.1	-19.8	-2.8	0.5	-0.4	2.5	-8.5
CCOCCCN(C(=O)Nc1ccc(CC)cc1)C1CCN(C(C)=O)CC1	-2.2	1.2	19.3	3.8	-8.8	0.8	-2.0	13.7
Cc1oc(-c2ccccc2Cl)nc1CS(=O)CC(=O)NCc1ccco1 (stereo unspecified)	-5.9	-13.2	-0.6	0.5	-5.5	-0.3	0.1	6.9
CCOC(=O)COc1cc([N+](=O)[O-])cc2cccnc12	3.3	-4.2	-2.8	5.4	3.5	0.3	-2.6	-16.4
O=C(CSc1ccc(-c2ccco2)nn1)NC1CCCC1	-7.9	0.0	-3.2	0.8	-2.2	-0.1	2.8	-10.8

Four compounds out of the list, sorted by heavy-atom count, highest first:
SMILES	LANA-H2A inh	Beta cell apopt	Calb FLC	UCH37 DUB inh	Beta2AR agonist	Bfl-1 A1 inh	RanGTP-Impb inh	T cruzi inh
O=S(=O)(c1ccccc1)N1CCN(c2nnnn2-c2ccccc2)CC1	-18.9	4.5	-6.3	0.8	0.2	-0.4	3.0	-12.2
COC(=O)c1cc(S(=O)(=O)N2CCN(c3ccccc3)CC2)c[nH]1	-2.3	-8.2	-1.2	4.9	2.0	-0.1	29.1*	-9.0
O=C(NCCCNC(=O)c1cc(Cl)ccc1Cl)c1ccccn1	7.3	.	-0.2	6.7	-2.2	0.2	0.0	10.1
O=C(Nc1ccccc1)NC1CCCCNC1=O (stereo unspecified)	3.8	-10.1	2.1	3.7	-4.2	0.4	-2.9	-15.8

Next entries follow:
SMILES	LANA-H2A inh	Beta cell apopt	Calb FLC	UCH37 DUB inh	Beta2AR agonist	Bfl-1 A1 inh	RanGTP-Impb inh	T cruzi inh
COc1ccc(S(=O)(=O)Nc2cc(C)on2)cc1OC	-3.6	-4.3	8.7	1.8	4.1	-0.8	2.8	-6.5
Cn1c2ccccc2c(=O)c2c(=O)n(Cc3ccccc3)c(-c3ccc(F)cc3)nc21	-3.0	5.8	11.1	3.8	-0.2	-0.1	-2.2	.
Cc1nn(C)cc1CNC(=O)CCC(=O)O	-0.4	-5.3	-6.9	2.7	1.1	1.6	?	-6.4
Cc1ccc(Cn2c(C)c3cnn(CC(=O)NCc4ccccn4)c(=O)c3c2C)cc1	-0.4	3.7	-3.7	4.7	-8.4	0.2	2.9	-0.4
CS(=O)c1ccccc1COC(=O)Nc1ccccc1 (stereo unspecified)	2.6	-3.8	-18.5	3.3	1.6	-0.2	-0.4	1.8
N#Cc1ccccc1OCC(=O)OCC(=O)c1ccc[nH]1	-0.4	-3.3	.	0.6	-3.2	0.2	.	.
CN(c1ccc(OCc2ccc([N+](=O)[O-])cc2)cc1)S(=O)(=O)c1ccccc1	-7.4	0.0	-0.4	3.2	-1.3	-0.2	2.4	32.7
O=C(Nc1ncccc1O)c1ccc2c(c1)OCO2	-2.7	-1.2	7.1	7.1	-4.8	-4.3	6.0	-16.7
C/C(=N\Nc1ccc([N+](=O)[O-])cc1[N+](=O)[O-])c1ccc(-n2nncc2C(C)(C)C)cc1	-3.3	10.8	-3.3	.	13.5	-0.6	-0.3	22.6
C=CCn1c(NCc2ccccc2O)nc2ccccc21	2.9	-1.8	4.0	-0.3	-10.5	0.4	?	0.1
CCC1(C)Cc2ccccc2C(=O)N1 (stereo unspecified)	3.1	-4.1	-2.1	1.6	1.7	0.6	-2.6	-14.0
Cc1cccc(Nc2nc3c(c(=O)n(C)c(=O)n3C)n2CC(O)CO)c1 (stereo unspecified)	-3.7	-3.8	4.0	2.7	-3.2	-0.4	0.4	17.7
N#Cc1nc(-c2cccc(Cl)c2)oc1N1CCC(C(N)=O)CC1	5.8	-3.7	5.9	i	-0.8	-0.8	0.5	4.7
CCOc1ccc(-n2cc(-c3ccc(OC)c(OC)c3)[nH]c2=S)cc1	-0.7	-3.4	-1.6	9.6	-5.4	-0.5	-1.3	-11.1
CCOc1ccc(/C=N/n2c(C)nc3ccccc3c2=O)cc1	-0.2	2.4	1.9	.	-13.2	0.4	5.4	-8.7
O=C(Nc1nccs1)c1ccc(S(=O)(=O)NCc2cccs2)cc1	0.9	-6.6	-2.8	5.0	-4.9	-0.5	1.9	-1.8
CCCOc1ccc(N2C(=O)CC(SCCN)C2=O)cc1 (stereo unspecified)	-3.2	2.3	24.9	1.0	-8.0	-5.0	-0.8	-9.1
CCOc1c(Cl)cc(C(=O)Nc2ccccc2-c2ccccc2)cc1Cl	-2.3	7.3	-3.6	1.1	-1.0	1.0	3.7	1.1
CC(OC(=O)c1cccc(S(=O)(=O)N2CCOCC2)c1)C(=O)NC1CCCCC1C (stereo unspecified)	9.5	-2.3	.	0.3	-4.3	0.3	.	.
Cc1cc2ccccn2c1C(=O)c1nc(NCc2ccco2)ncc1Cl	3.6	0.6	21.2	4.1	-5.5	0.9	7.7	29.5
COC(=O)c1ccc(-c2ncc(-c3cccc4ccccc34)o2)cc1	-6.6	-10.5	-0.3	i	-7.8	0.8	1.8	4.1
COC(=O)C1CCN(c2ccc([N+](=O)[O-])cc2)CC1	-3.2	-8.2	-12.9	8.5	2.7	-2.0	-2.4	-19.5
Cc1ccc(CNC(=O)C2CCN(C(=O)Nc3ccccc3)CC2)cc1	1.8	-5.5	-2.7	5.1	-0.7	0.6	-1.5	-3.6
C=CCNC(=O)Cn1nnc(-c2ccc(-c3ccc(OC)cc3)cc2)n1	-6.3	.	-3.5	0.8	-12.0	-2.1	4.1	-18.2
COc1ccc2c(c1)CC/C(=C/c1ccncc1)C2=O	-2.0	9.6	11.0	3.1	7.6	0.4	-1.0	-38.9
SMILES	LANA-H2A inh	Beta cell apopt	Calb FLC	UCH37 DUB inh	Beta2AR agonist	Bfl-1 A1 inh	RanGTP-Impb inh	T cruzi inh
CC(C)C[C@H](NC(=O)c1nc[nH]c1C(=O)NC1CCN(C(=O)OC(C)(C)C)CC1)C(=O)OC(C)(C)C	-1.3	5.1	9.4	4.5	0.2	-0.7	2.1	22.3
CCN(CC)c1ccc(NC2=C(Cl)C(=O)c3ccccc3C2=O)cc1	5.1	0.5	.	4.7	74.3*	?	.	.
CC(=O)NCC1CCN(C(=O)C2CCC(=O)N(CCc3cccc(F)c3)C2)CC1 (stereo unspecified)	3.2	-1.5	2.8	-2.7	5.0	0.8	-0.7	-14.5
Oc1ccc(-c2nc3c4c(ncn3n2)-c2ccccc2CC42CCCC2)cc1	-3.3	-5.1	2.8	-10.1	25.0	?	-0.5	43.7
CCOC(=O)C(Cc1ccccc1)NC(=O)Cn1nnc(-c2ccc(SC)cc2)n1 (stereo unspecified)	6.3	-9.5	-1.1	0.4	3.3	1.5	?	-7.3
COC(=O)C1CCC(C)(C(=O)Nc2ccccc2)C1(C)C (stereo unspecified)	-0.2	-4.7	-3.7	-0.1	-3.0	-0.4	5.1	-15.8
C=CC1C(OC2OC(CO)C(O)C(O)C2O)OC=C(C(=O)OC)C1CC1CC(=O)CC(CC(=O)CCc2ccc(O)cc2)O1 (stereo unspecified)	-3.3	.	2.6	2.0	5.1	0.5	4.5	-21.6
Cc1oc2c(Cl)c(Cl)c(O)c(CN(C)C)c2c1C(=O)c1ccc(Cl)cc1	1.3	-7.2	8.7	6.5	10.3	0.0	-6.3	-5.5

Profiles as entered above. Order of values: LANA-H2A inh	Beta cell apopt	Calb FLC	UCH37 DUB inh	Beta2AR agonist	Bfl-1 A1 inh	RanGTP-Impb inh	T cruzi inh
CCOCCCN(C(=O)Nc1ccc(CC)cc1)C1CCN(C(C)=O)CC1 reads -2.2	1.2	19.3	3.8	-8.8	0.8	-2.0	13.7
O=C1N[C@H](Cc2ccccc2)C(=O)N[C@H]1Cc1cn(S(=O)(=O)c2ccccc2)c2ccccc12 reads -2.9	1.9	5.6	-1.1	.	-0.1	-1.5	4.8
CCOc1ccc(/C=N/n2c(C)nc3ccccc3c2=O)cc1 reads -0.2	2.4	1.9	.	-13.2	0.4	5.4	-8.7

Screens (PubChem)
